c-Myc SMM – binders of human c-Myc; P01106; small molecule microarray, His-c-Myc binding, anti-His fluorescence; calls only; actives 1.5% (n = 17,000);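 active = spot fluorescence over background with P-value below 7% in all four replicate spots, showing protein binding; compounds were printed on slides so no solution concentration is given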;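 also: score is binary with 100 for all four spots passing and 0 otherwise; about 2 pmol printed per array spot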
Target sequence (P01106 whole entry, looked up): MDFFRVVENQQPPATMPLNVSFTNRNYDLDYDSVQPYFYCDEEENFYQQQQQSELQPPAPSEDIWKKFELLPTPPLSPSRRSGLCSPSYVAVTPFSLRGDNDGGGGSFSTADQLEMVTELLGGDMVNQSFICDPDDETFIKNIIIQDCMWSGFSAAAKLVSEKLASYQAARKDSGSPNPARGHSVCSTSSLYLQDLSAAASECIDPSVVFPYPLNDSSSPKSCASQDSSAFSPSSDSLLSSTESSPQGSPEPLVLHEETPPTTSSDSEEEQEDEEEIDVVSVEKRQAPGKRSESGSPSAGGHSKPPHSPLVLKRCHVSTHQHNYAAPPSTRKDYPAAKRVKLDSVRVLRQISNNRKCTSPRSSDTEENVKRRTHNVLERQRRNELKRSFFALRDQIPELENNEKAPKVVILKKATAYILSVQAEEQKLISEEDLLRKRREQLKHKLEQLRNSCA
mut p53 SMM – binds human mutant p53 on microarray; small molecule microarray binding, anti-GST fluorescence; calls only; actives 0.4% (n = 17,000); AID 624136;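 active = compounds whose four printed spots each glow above background more than chance allows, each with a p-value under 7%; compounds were printed on slides so no solution concentration is given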;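 also: about 2 pmol printed per array spot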
STAT3 SMM – binders of human STAT3; P40763; Small molecule microarray, His-STAT3 binding, anti-His fluorescence; calls only; actives 0.2% (n = 17,000);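 active = compounds whose four printed spots each show fluorescence over background unusually high for their array block, chance value under 7%; compounds were printed on slides so no solution concentration is given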;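 also: about 2 pmol printed per array spot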
ID4 binder – binds human ID4 protein on microarray; P47928; small molecule microarray, Flag-ID4 binding, fluorescence F/B; calls only; actives 1.2% (n = 31,000); AID 624137;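 active = spot signal over background at p below 0.07 in all four prints; compounds were printed on slides so no solution concentration is given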;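 also: a binder raises fluorescence above local background on the spot; about 2 pmol printed per array spot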
Target sequence (P47928 whole entry, looked up): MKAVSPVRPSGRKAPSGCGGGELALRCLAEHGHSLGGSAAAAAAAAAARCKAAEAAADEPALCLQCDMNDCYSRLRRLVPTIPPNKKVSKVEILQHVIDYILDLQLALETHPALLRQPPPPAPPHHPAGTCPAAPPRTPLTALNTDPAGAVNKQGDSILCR
Calls only; i = inactive; / = not tested or not shown; + = active, no number.

SMILES | c-Myc SMM | mut p53 SMM | STAT3 SMM | ID4 binder
C=CCNC(=O)[C@@H]1[C@H]2C(=O)O[C@H](c3ccccc3)[C@H](c3ccccc3)N2[C@H](c2ccc(O)cc2)[C@@]12C(=O)Nc1ccc(C#Cc3ccc(OC)cc3)cc12 | i | i | i | i
C[C@H](CO)N1C[C@H](C)[C@H](CN(C)C)Oc2ccc(NS(=O)(=O)c3cccs3)cc2C1=O | i | i | i | i
C[C@@H]1CCCCO[C@@H](CN(C)C(=O)Nc2ccc(F)cc2)[C@@H](C)CN([C@@H](C)CO)C(=O)c2cc(N(C)C)ccc2O1 | i | i | i | i
COc1ccc(NC(=O)Nc2ccc3c(c2)C(=O)N([C@H](C)CO)C[C@H](C)[C@H](CN(C)C)O3)cc1 | i | i | i | i
CC(=O)c1cccc(NC(=O)CSc2nnc3c(n2)[nH]c2ccccc23)c1 | i | i | i | i
C[C@H](CO)N1C[C@H](C)[C@H](CN(C)CC2CC2)Oc2ccc(NS(C)(=O)=O)cc2CC1=O | i | i | i | i
C[C@H]1CCCCO[C@H](CN(C)C(=O)c2ccccc2)[C@@H](C)CN([C@@H](C)CO)C(=O)c2cc(NS(=O)(=O)c3cn(C)cn3)ccc2O1 | i | i | i | i
C[C@H]1CN([C@@H](C)CO)C(=O)c2cccc(NC(=O)c3ccc(-c4nccs4)cc3)c2O[C@H]1CN(C)C(=O)Nc1cccc2ccccc12 | i | i | i | i
C[C@@H]1CN([C@@H](C)CO)C(=O)Cc2cc(NC(=O)C3CC3)ccc2O[C@@H]1CN(C)C(=O)Nc1ccc(F)cc1 | i | i | i | i
C[C@@H]1CCCCO[C@@H](CN(C)C(=O)CCCN(C)C)[C@@H](C)CN([C@@H](C)CO)C(=O)c2cc(NS(=O)(=O)c3ccccc3)ccc2O1 | i | i | i | i
Cc1ccc(S(=O)(=O)N(C)CC(=O)Nc2ccc(C#N)cc2)cc1 | i | i | i | i
COc1ccc(CCNC(=O)[C@@H]2c3ccccc3C(=O)N(Cc3ccccc3OC)[C@H]2c2ccc(CO)cc2)cc1 | i | i | i | /
C#Cc1ccc([C@H]2C=C(C(=O)N3CCOCC3)O[C@@H](OCC)[C@@H]2CCCO)cc1 | i | i | i | i
C[C@H](CO)N1C[C@H](C)[C@@H](CN(C)C(=O)Nc2ccc(C(F)(F)F)cc2)Oc2ccc(NC(=O)Nc3ccccc3)cc2C1=O | i | i | i | i
COc1ccc(-n2c(CCn3c4ccccc4c4ccccc43)n[nH]c2=S)cc1 | i | i | i | i
COc1ccc(S(=O)(=O)Nc2ccc3c(c2)C(=O)N([C@@H](C)CO)C[C@H](C)[C@@H](CN(C)S(=O)(=O)c2ccc(OC)cc2)O3)cc1 | i | i | i | i
C[C@@H]1CN([C@H](C)CO)C(=O)c2cc(NS(=O)(=O)c3ccc(Cl)cc3)ccc2O[C@H]1CN(C)C | i | i | i | i
O=C(O)c1cc(NC(=O)C2CCCO2)cc(NC(=O)C2CCCO2)c1 (configuration not stated) | i | i | i | +
COc1cccc(OCCSc2nc(N)cc(N)n2)c1 | i | i | i | i
COc1cccc2cc(-c3nnc(SCC(=O)c4ccccc4)n3C)oc12 | i | i | i | i
CNC[C@@H]1Oc2c(N)cccc2C(=O)N([C@@H](C)CO)C[C@H]1C | i | i | i | i
CC(C)NC(=O)Nc1cccc2c1O[C@H](CN(C)C(=O)Nc1ccc3c(c1)OCO3)[C@H](C)CN([C@H](C)CO)C2=O | i | i | i | /
C[C@H](CO)N1C[C@H](C)[C@H](CN(C)C(=O)Nc2ccccc2)Oc2ccc(NC(=O)Cc3cn(C)c4ccccc34)cc2CC1=O | i | i | i | i
COc1ccc(NC(=O)Nc2ccc3c(c2)CC(=O)N([C@H](C)CO)C[C@@H](C)[C@H](CN(C)S(=O)(=O)c2ccc(C)cc2)O3)cc1 | i | i | i | i
CNC[C@@H]1Oc2c(NC(=O)c3nc4ccccc4s3)cccc2C(=O)N([C@H](C)CO)C[C@H]1C | i | i | i | i

The list goes on:
SMILES | c-Myc SMM | mut p53 SMM | STAT3 SMM | ID4 binder
C[C@@H]1CN([C@H](C)CO)C(=O)c2cc(NC(=O)Cc3ccccc3)ccc2O[C@@H](C)CCCCO[C@@H]1CN(C)C | i | i | i | i
C[C@@H]1CN([C@@H](C)CO)C(=O)c2cccc(NS(=O)(=O)c3cn(C)cn3)c2O[C@@H]1CN(C)CC1CC1 | i | i | i | i
C[C@@H]1CN([C@@H](C)CO)C(=O)Cc2cc(NS(=O)(=O)c3ccc(Cl)cc3)ccc2O[C@H]1CN(C)CC1CCCCC1 | i | i | i | i
CC(=O)CCCCCCCc1[nH]c2ccccc2c(=O)c1O[C@@H]1O[C@H](CO)[C@@H](O)[C@H](O)[C@H]1O | i | i | i | i
CN1Cc2cc3c(cc2CCC(=O)c2cc4c(cc2C1)OCO4)OCO3 | i | i | i | /
Cc1ccc(-c2nnc3c4ccccc4c(C)nn23)cc1S(N)(=O)=O | i | i | i | i
CC(C)NC(=O)Nc1ccc2c(c1)CC(=O)N([C@H](C)CO)C[C@H](C)[C@H](CN(C)S(=O)(=O)c1ccccc1)O2 | i | i | i | i
C[C@@H]1CN([C@@H](C)CO)C(=O)c2cc(NS(C)(=O)=O)ccc2O[C@@H](C)CCCCO[C@H]1CN(C)C(=O)CCC(F)(F)F | i | i | i | i
C[C@H](CO)N1C[C@H](C)[C@@H](CN(C)S(=O)(=O)c2cn(C)cn2)Oc2ccc(NC(=O)Nc3ccc(F)cc3)cc2C1=O | i | i | i | i
C[C@H](CO)N1C[C@H](C)[C@H](CN(C)Cc2ccccc2)Oc2ncc(-c3cc4ccccc4o3)cc2C1=O | i | i | i | i
C[C@@H]1CCCCO[C@H](CN(C)C(=O)Cc2ccccc2)[C@@H](C)CN([C@H](C)CO)C(=O)c2cc(NC(=O)Nc3ccc(F)cc3)ccc2O1 | i | i | i | i
C[C@H]1CCCCO[C@H](CN(C)C(=O)CCC(F)(F)F)[C@@H](C)CN([C@@H](C)CO)C(=O)c2cc(NC(=O)NC3CCCCC3)ccc2O1 | i | i | i | /
C[C@H](CO)N1C[C@H](C)[C@H](CN(C)C(=O)Nc2ccccc2)Oc2ccc(NC(=O)Cc3ccccc3)cc2C1=O | i | i | i | i
O=c1cc(-c2ccc(O)c(O)c2)c2c(O[C@@H]3O[C@H](CO)[C@@H](O)[C@H](O)[C@H]3O)cc(O)cc2o1 | i | i | i | i
C[C@H](CO)N1C[C@H](C)[C@@H](CN(C)Cc2ccc(Oc3ccccc3)cc2)Oc2c(NC(=O)C3CCOCC3)cccc2C1=O | i | i | i | i
COc1ccc(CN(C)C[C@@H]2Oc3c(NC(=O)Nc4ccc(C(F)(F)F)cc4)cccc3C(=O)N([C@H](C)CO)C[C@H]2C)cc1 | i | i | i | /
C=CCNC(=O)[C@H]1[C@@H]2C(=O)O[C@@H](c3ccccc3)[C@@H](c3ccccc3)N2[C@@H](c2ccc(O)cc2)[C@]12C(=O)N(C(=O)OCCOC)c1ccc(C#CC3=CCCCC3)cc12 | i | i | i | i
COc1ccc(CN(C)C[C@@H]2Oc3ccc(NC(=O)Cc4cn(C)c5ccccc45)cc3CC(=O)N([C@@H](C)CO)C[C@H]2C)cc1 | i | i | i | +
O=c1c(O[C@@H]2O[C@H](CO)[C@@H](O)[C@H](O)[C@H]2O)c(-c2ccc(O)cc2)oc2cc(O)cc(O)c12 | i | i | i | /
Cc1noc(C)c1S(=O)(=O)Nc1ccc2c(c1)C(=O)N([C@H](C)CO)C[C@@H](C)[C@@H](CN(C)C(=O)NC(C)C)OCCCC[C@H](C)O2 | i | i | i | i
NC(=O)Cc1ccc(O)c(Cl)c1 | i | i | i | i
CN1CCN(C(=O)C2=C[C@@H](c3coc4ccccc4c3=O)C[C@@H](OCc3ccc(CO)cc3)O2)CC1 | i | i | i | /
C[C@H](CO)N1C[C@H](C)[C@H](CN(C)S(=O)(=O)c2cccs2)Oc2ncc(C#Cc3ccccc3)cc2C1=O | i | i | i | i
Cc1noc(C)c1NC(=O)N(C)C[C@H]1Oc2c(NC(=O)c3cnccn3)cccc2C(=O)N([C@H](C)CO)C[C@@H]1C | i | i | i | i
C[C@@H]1CN([C@H](C)CO)C(=O)c2cccc(NC(=O)Nc3ccc(F)cc3)c2O[C@@H]1CN(C)C | i | i | i | i

Continuation:
SMILES | c-Myc SMM | mut p53 SMM | STAT3 SMM | ID4 binder
Cn1c(SCC(=O)c2ccc3c(c2)Cc2ccccc2-3)nnc1-c1cccc(N)c1 | i | i | i | i
COCCOC(=O)N1C(=O)[C@@]2(c3cc(C#CCCO)ccc31)[C@H](c1ccccc1OCCO)N1[C@H](c3ccccc3)[C@H](c3ccccc3)OC(=O)[C@H]1[C@@H]2C(=O)NC[C@H](O)c1ccccc1 | i | i | i | /
C[C@@H]1CN([C@@H](C)CO)C(=O)c2cc(NS(C)(=O)=O)ccc2O[C@@H](C)CCCCO[C@H]1CN(C)C | i | i | i | i
C[C@H](CO)N1C[C@H](C)[C@H](CN(C)C(=O)Nc2ccccc2)OCCCC[C@H](C)Oc2ccc(NC(=O)c3ccccc3)cc2C1=O | i | i | i | i
CC(=O)c1cccc(NC(=O)CN2C(=O)c3ccccc3S2(=O)=O)c1 | i | i | i | i
COc1ccc(NC(=O)N(C)C[C@@H]2OCCCC[C@H](C)Oc3ccc(NC(=O)CCC(F)(F)F)cc3C(=O)N([C@@H](C)CO)C[C@@H]2C)cc1 | i | i | i | /
O=C(Nc1ccccc1C(=O)N1CCOCC1)c1ccc(CN2CCOCC2)cc1 | i | i | i | i
COc1ccc([Si](C)(C)[C@@H]2[C@@H](CCO)O[C@]3(C(=O)N(Cc4cccc(NC(C)=O)c4)c4ccccc43)[C@H]2C)cc1 | i | i | i | i
CC(C)=CCc1cc2c(c(CC=C(C)C)c1O)O[C@H](c1ccc(O)cc1)[C@@H](O)C2=O | i | i | i | /
COC1(C2=NCCN2)COc2ccccc2O1 (configuration not stated) | i | i | i | i
Cc1ccc(S(=O)(=O)NC(Cc2c[nH]c3ccccc23)C(=O)O)cc1 (configuration not stated) | i | i | i | i
Cc1ccc(S(=O)(=O)Nc2ccc3c(c2)C(=O)N([C@H](C)CO)C[C@H](C)[C@H](CN(C)C(=O)c2ccccc2)OCCCC[C@@H](C)O3)cc1 | i | i | i | /
Cc1cc(C)n2c(SCc3c(C)noc3C)nnc2n1 | i | i | i | i
Cc1noc(C)c1NC(=O)Nc1ccc2c(c1)C(=O)N([C@@H](C)CO)C[C@H](C)[C@H](CN(C)S(=O)(=O)c1cccs1)OCCCC[C@H](C)O2 | i | i | i | i
C[C@H](CO)N1C[C@H](C)[C@H](CN(C)Cc2ccncc2)Oc2ncc(C#Cc3ccc(F)cc3)cc2C1=O | i | i | i | /
C[C@H](CO)N1C[C@H](C)[C@@H](CN(C)Cc2ccncc2)OCCCC[C@H](C)Oc2ccc(NS(C)(=O)=O)cc2C1=O | i | i | i | i
COCCOC(=O)N1C(=O)[C@@]2(c3cc(C#CCNC(N)=O)ccc31)[C@H](C(=O)N1CCN(c3ncccn3)CC1)[C@H]1C(=O)O[C@H](c3ccccc3)[C@H](c3ccccc3)N1[C@@H]2c1ccccc1OCCO | i | i | i | i
COC(=O)Cc1csc(Nc2c(C)n(C)n(-c3ccccc3)c2=O)n1 | i | i | i | i
O=C(Nc1ccccc1)C1=C[C@@H](c2ccc(C(F)(F)F)cc2)C[C@@H](OCc2ccc(CO)cc2)O1 | i | i | i | i
CNC[C@H]1Oc2c(NS(C)(=O)=O)cccc2C(=O)N([C@H](C)CO)C[C@@H]1C | i | i | i | i
CC(C)(C)[C@H]1C=C(C(=O)Nc2ccccc2)O[C@@H](OCCCCO)C1 | i | i | i | i
CC(C)NC(=O)N(C)C[C@@H]1OCCCC[C@@H](C)Oc2ccc(NS(C)(=O)=O)cc2C(=O)N([C@H](C)CO)C[C@@H]1C | i | i | i | i
C[C@H](CO)N1C[C@H](C)[C@H](CN(C)Cc2ccc3c(c2)OCO3)Oc2ccc(NC(=O)Nc3ccc(F)cc3)cc2CC1=O | i | i | i | i
COc1cc2c(cc1OC)CN(C(=O)[C@H]1[C@@H]3C(=O)O[C@@H](c4ccccc4)[C@@H](c4ccccc4)N3[C@@H](c3ccccc3OCCO)[C@]13C(=O)Nc1ccccc13)CC2 | i | i | i | i
O=C(O)c1ccc2nc(-c3ccccc3)c(-c3ccccc3)nc2c1 | i | i | i | i
Cc1cc(C(=O)Nc2ccc(OCC(=O)O)cc2)ccc1[N+](=O)[O-] | i | i | i | i
CC1CCc2c(sc(NC(=O)CCN3C(=O)c4ccccc4C3=O)c2C#N)C1 (configuration not stated) | i | i | i | i
